Compound activity (PubChem)
Biofilm kill mix: clotrimazole potentiators killing C. albicans biofilm, primary screen, 4-compound mixtures | C. albicans biofilm persisters + clotrimazole, fluorescence viability; primary screen in compound mixtures of four per well | inhibition, % at 7.6 µM | actives 0.02% (n = 120,000) | AID 1242, 2008;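 active = inhibition above 30.3% in the primary screen of four-compound pools, then above 30% when the compound was retested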;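 also: compounds exposed to preformed 24 h biofilms for 48 h; the number belongs to the whole pool; some results filed as inactive read as strong as hits; inactives centre near 12; 0% = biofilm with clotrimazole alone and 100% = kill control; retested singly at about 60 µM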
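Assay system: C. albicans biofilms / Medium: RPMI/MOPS medium, pH 7.0 / Schedule: biofilm formation 24 h, compound exposure 48 h, 37 °C / Measured by: Alamar Blue fluorescence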
* hit, by the source's call; & = joins results of further samples. This is a subset; rates above refer to the full screens.

canonical_smiles	Biofilm kill mix
CCOc1ccc2cc(C3CC(c4ccco4)=NN3S(=O)(=O)c3ccccc3)c(Cl)nc2c1 (stereo not given)	17.1
CC(C)C(=O)OCc1cn(-c2ccc(Cl)c(Cl)c2)nn1	8.8
Cc1ccc2cc(C=O)c(N(C)C)nc2c1	10.3
NS(=O)(=O)c1ccc(NC(=O)CN2CCCC2)cc1	4.3
CC(=O)Nc1ccc(Cc2nc3c([nH]2)c(=O)n(C)c(=O)n3C)cc1	6.8
CCC1CCC(C(=O)NC(C(=O)NCCCN2CCCCC2C)C(C)C)CC1 (stereo not given)	19.9
CC(=O)C1=C(c2ccccc2)OC(N)=C(C#N)C1c1ccc(O)cc1 (stereo not given)	10.1
CC(C)C(=O)Nc1ccc([N+](=O)[O-])c(C(F)(F)F)c1	1.2
O=C(CCc1ccc(O)cc1)c1c(O)cc(O)cc1O	3.5
O=C(/C=C/c1ccccc1)N/C(=C/c1ccccc1)C(=O)Nc1cccc(C(=O)O)c1	11.6
O=C1CCN(c2ccc([N+](=O)[O-])cc2F)CC1	22.1
COc1ccc(C2c3ccc(O)cc3Oc3ncn4nc(-c5ccccn5)nc4c32)cc1 (stereo not given)	20.9
COc1ccc(C2C(C(=O)N3CCN(c4ccccn4)CC3)CCC(=O)N2c2ccc(OC)cc2)cc1 (stereo not given)	3.3
Cc1nn(-c2ccccc2)c(C)c1/C=N/NC(=O)CSc1nnc(-c2ccccc2)n1-c1ccc(Cl)cc1	10.7
Cc1cc(C)c(OCC(=O)NCC2CCCO2)c(C)c1 (stereo not given)	19.1
O=C(NCc1ccc2c(c1)OCO2)c1ccc(Br)s1	16.0
CC(CC(=O)Nc1ccc(S(=O)(=O)N2CCOCC2)cc1)c1ccccc1 (stereo not given)	20.0
NC(=O)c1cc(C(=O)c2ccc(Cl)cc2)c[nH]1	1.4
Cc1ccc(-c2c[n+](Cc3ccc(Cl)c(Cl)c3)c3n2CCC3)cc1	13.7
CCOC(=O)c1c(-c2cccc([N+](=O)[O-])c2)csc1NC(=O)CCCOc1ccccc1	9.1
Cc1cc(C(=O)NNC(=S)NCC(C)C)cs1	7.6
Cc1cccc(C(=O)OC(C)CN2CCOCC2)c1 (stereo not given)	11.9
O=C(O)c1ccc(COc2ccc3c(c2)CCC3)cc1	16.4
S=C(NC1CCCC1)N1CCN(C/C=C/c2ccccc2)CC1	12.9
C=CCNC(=O)COC(=O)c1nc2nccc(C)n2n1	15.7
Cc1cc(/C=N/Nc2ncnc(N)c2[N+](=O)[O-])c(C)n1-c1ccccc1	2.6
CCCCNC(=O)Cc1cc(=O)[nH]c(=O)[nH]1	17.7
COc1ccccc1NC(=O)c1ccc(SCC(=O)NCc2ccccc2Cl)c([N+](=O)[O-])c1	21.6
O=C1c2oc3ccccc3c(=O)c2C(c2ccc(O)cc2)N1c1nccs1 (stereo not given)	8.7
CC(C)OC(=O)c1ccc(NC(=O)CSc2nc3ncccc3[nH]2)cc1	21.3
Cc1cc(CN2CCCC(CO)(Cc3cccc(Cl)c3)C2)n[nH]1 (stereo not given)	-9.8
CCOC(=O)C(C)Sc1nnc(NC(=O)c2ccc(C)c([N+](=O)[O-])c2)s1 (stereo not given)	-0.6
CC(=O)NC1=NN(C(C)=O)C2(CCCCC2)S1	-4.7
Cc1ccc(NC(=O)/C=C/c2ccc3c(c2)OCO3)cc1S(=O)(=O)N1CCOCC1	8.9
CCOc1ccc2c(c1)C(C)=CC(C)(C)N2S(=O)(=O)c1ccc(C)cc1	18.6
COc1ccc(/C(C)=N/NC(=O)c2ccc(CSc3nncn3C)cc2)cc1	-5.9
C/C(=N\OCc1ccccc1C#N)c1cc2ccccc2o1	4.1
Cn1cc(-c2ccccc2C(N)=O)c(=O)c2cc(Cl)ccc21	17.6
COc1ccc(Cl)cc1NC(=S)N(Cc1cccnc1)Cc1ccco1	-3.6
COc1ccc(C)cc1-n1cnnn1	24.1
CCC1=C(OC(=O)N(CC)CC)N2C(=O)OC(=NCC3CC3)[C@]2(Cc2ccccc2)[C@H]2C1=CC[C@H]1C(=O)N(c3ccccc3)C(=O)[C@H]12	15.2
Cc1cc(C)cc(NC(=O)NCC(O)COc2ccc([N+](=O)[O-])cc2)c1 (stereo not given)	10.7
COC(=O)Cc1ccc(NC(=S)NCc2ccccc2)cc1	16.8
Cc1cc(C)c2sc(NC(=O)c3ccc(N4C(=O)CCC4=O)cc3)nc2c1	28.5
C(=C\c1ccncc1)/c1ccncc1	23.4
Cc1nc(SCC(=O)NC(=O)NC2CCCCC2)nc(C)c1C	9.5
CC(=O)NC(c1ccc(Cl)cc1)c1c(O)ccc2ccc(O)cc12 (stereo not given)	2.7
Cn1c(SCC(=O)OC2CCCCC2)nnc1-c1ccco1	8.0

Going on with the list.
SMILES	Biofilm kill mix
Cc1sc2ncnc(N)c2c1C	3.6
Cc1cccc(N(CC(=O)NCCSCc2ccccc2)S(C)(=O)=O)c1C	9.7
CN(C)CCCCOc1cccc(Br)c1	10.1
COc1ccc(C(=O)NCCN2CCOCC2)c(OC)c1OC	7.8
Cc1nc(-c2ccc(Cl)cc2)sc1C1(C)CC(c2c(Cl)cccc2Cl)=NO1 (stereo not given)	15.2
CCNc1nc(NCC)nc(OCCNS(=O)(=O)c2ccccc2)n1	22.8
CCCCN(CCCC)CCCNC(=O)c1ccc2nc(-c3ccccc3NC(C)=O)c(=O)[nH]c2c1	15.9
Cc1ccc2[nH]c3c(=O)n(N)c(=O)[nH]c3c2c1	19.2
N#Cc1ccccc1NC(=O)COC(=O)COc1ccccc1[N+](=O)[O-]	-0.1
COCCOc1ccc(C(F)(F)F)cc1NC(=O)c1ccc(F)cc1	11.4
CCN(c1ccccc1)S(=O)(=O)c1ccc(OC)c(NC(=O)c2cccs2)c1	-5.7
c1ccc2c(Nc3ccc4c(c3)OCCO4)c3c(nc2c1)CCCC3	-3.7
CCOc1ccc(S(=O)(=O)Nc2nc3ccccc3nc2-n2ccc(=NC(=O)c3ccccc3C)cc2)cc1	21.2
Nc1nc(-c2ccco2)nn1C(=O)c1ccc([N+](=O)[O-])cc1	-0.6
CCC(=O)NC(NC(=S)Nc1c(C)n(C)n(-c2ccccc2)c1=O)C(Cl)(Cl)Cl (stereo not given)	15.4
Fc1ccc2nc(Nc3nc4c(F)cc(F)cc4s3)sc2c1	-1.4
COc1ccc(N2CC(C(=O)Nc3ccc(S(=O)(=O)Nc4nccs4)cc3)CC2=O)cc1 (stereo not given)	16.1
CCOc1ccc2nc(Cl)c(C3CC(c4ccccc4)=NN3C(=O)c3ccco3)cc2c1 (stereo not given)	14.2
CS(=O)(=O)N(CC(=O)NCCSCc1ccco1)c1ccc(Cl)cc1	33.6
O=C(CSc1c2c(nc3cc(Cl)ccc13)CCCC2)NCCN1CCOCC1	20.2
CCOc1ccc(/C=N/NC(=O)c2ccccc2NC(=O)c2ccc(OC)cc2)cc1	8.0
CCS(=O)(=O)N1CCCC(C(=O)NCCc2ccc(C)cc2)C1 (stereo not given)	11.5
Cc1ccc(CN2CCN(Cc3cn(C(C)C)c4ccccc34)CC2CCO)o1 (stereo not given)	15.2
COc1ccc(CC(=O)Nc2nc(-c3cccnc3)cs2)cc1	17.6
c1ccc2c(c1)CC1(CCCC1)N=C2N1CCOCC1	16.1
COc1ccc(NC(=O)CCc2nc3ccccc3[nH]2)cc1	19.1
COCCCN(C(=S)Nc1cccc(Cl)c1)C(C)c1ccncc1 (stereo not given)	8.6
COc1ccc(NC(=S)N2CCN(c3ccc([N+](=O)[O-])cc3)CC2)cc1OC	7.8
O=C(/C=C/c1cnc2ccccc2n1)NC12CC3CC(CC(C3)C1)C2	14.0
COCC(C)N1C(=O)Cc2c1nc(N)c1c(N)nc(N3CCN(c4ccccc4F)CC3)c(C#N)c21 (stereo not given)	-2.5
Cc1cccc(-n2c(SCC(=O)N3CC(=O)Nc4ccccc43)nc3ccccc3c2=O)c1	10.2
COC(C/C=C/C(=O)COCc1ccccc1)OC	24.2
Cc1ccc(N2C(=O)c3ccc(C(=O)O)cc3C2=O)c(C)c1	11.5
CCOC(=O)c1c(NC(=O)CSc2n[nH]c(CNc3ccccc3)n2)sc(C)c1C	10.4
Cc1cccc(NC(=S)NCCc2ccccn2)c1	21.5
CC(NC(=O)C(C(=O)c1cccc([N+](=O)[O-])c1)n1cc(Cl)ccc1=O)c1ccccc1 (stereo not given)	7.2
O=C(Nc1cnccn1)Nc1ccccc1Cl	18.2
CC1CCCN(c2ccc(C(=O)Nc3nnc(C4CC4)s3)cc2[N+](=O)[O-])C1 (stereo not given)	17.0
O=C(O)Cc1sc(Nc2ccccc2)nc1-c1ccc(Cl)cc1	11.6
CN(C)CCCCOc1ccccc1F	26.1
Cc1cccc(CSC2=NN3CCCC(=O)N=C3S2)c1	16.1
Cc1cc(C(=O)c2ccc(Cl)cc2)c(NC(=O)CCl)s1	12.8
C=CCN=c1scc(-c2ccc(F)cc2)n1/N=C/c1ccccn1	14.2
Nc1nc(-c2ccccc2)nn1S(=O)(=O)c1ccccc1	6.5
CCOC(=O)C1=C(O)C(=O)N(CCCn2ccnc2)C1c1ccc(OC)cc1 (stereo not given)	19.0
CCOC(=O)N1CCN(Cc2cn[nH]c2-c2ccc(-c3ccccc3)cc2)CC1	15.7
COc1ccc(NC(=O)CN(c2ccc([N+](=O)[O-])cc2)S(=O)(=O)c2ccccc2)c(OC)c1	0.8
CCc1sc(C(=O)Nc2ccc(F)cc2C)cc1C	8.4
CN(CC(O)CN1CCOCC1)S(=O)(=O)O (stereo not given)	4.7&-0.4
Cc1ccc(Nc2nnc(SCC(=O)NCCN3C(=O)CSC3=O)s2)cc1	2.5

Further compounds.
SMILES	Biofilm kill mix
CN1C(C(=O)NCc2ccc(OC(F)(F)F)cc2)CC2Cn3c(nc4cc5ccccc5cc43)C21 (stereo not given)	15.8
Cc1ccc(NC(=O)COc2ccccc2C=O)cc1Cl	13.3
CCC(C)(C)NC(=O)c1cc([N+](=O)[O-])ccc1N1CCOCC1	6.8
COC(=O)c1ccccc1OCCOCCOc1cccc2cccnc12	19.9
CC1=C(C(=O)OCc2ccc3c(c2)OCO3)C(c2ccc(O)c([N+](=O)[O-])c2)NC(=O)N1 (stereo not given)	19.5
N#C/C(=C(/O)CSc1n[nH]c(N)n1)c1nc2ccccc2[nH]1	20.7
Cc1cc(N2CCOCC2)nc(N)n1	13.7
Cc1nc(-c2nc(-c3c(C(=O)NNC(=O)Nc4ccccc4)noc3C)cs2)cs1	16.5
Cc1nc2cc(S(=O)(=O)C(F)(F)F)ccc2s1	7.6
Cc1ccc(NC(=O)NCCCl)cc1S(=O)(=O)N1CCOCC1	28.3
COc1cc(C(=O)NNC(=O)c2ccc(S(=O)(=O)N3CCCCC3)cc2)cc(OC)c1OC	11.4
c1ccc(-c2[nH]ncc2CN2CCN(Cc3ccc4c(c3)OCO4)CC2)cc1	4.2
COc1ccc(-n2cc(CN3CCCC3)c(-c3cccc(F)c3)n2)cc1	6.0
Cc1ccc(S(=O)(=O)N(C)Cc2ccc(C(=O)N/N=C3\CCCC(=O)C3)cc2)cc1	1.4
FC(F)(F)c1ccc2c(c1)n(Cc1ccccc1)c1[n+]2CCCCC1	12.4
Cc1oc(-c2cccs2)nc1CN1CCN(Cc2ccc(F)c(F)c2)C(CCO)C1 (stereo not given)	3.8
COc1cccc(CN2CCC(C(=O)N3CCC(C)CC3)CC2)c1	7.5
OCC(CO)(CO)NCc1ccc(-c2ccccc2)cc1	2.1
Cc1ccc2nc(Cl)c(/C=N/Nc3ccc(C(=O)O)cc3)cc2c1	3.4
COc1cc(-c2nc(=S)[nH][nH]2)cc(OC)c1OC	15.4
Cc1nn(C(=O)c2nn(C)cc2Cl)c(C)c1Br	5.9
CCc1nnc(NC(=O)C2CC(=O)N(Cc3ccccc3)C2)s1 (stereo not given)	12.2
CC(=O)Nc1ccc(NC(=O)C(C)c2cccc(C(=O)c3ccccc3)c2)cc1 (stereo not given)	17.3
Cc1ccccc1C(=O)Nc1nnc(CC(=O)N/N=C/c2ccncc2)s1	27.0
CCOC(=O)Cc1csc(NC(=S)NC(=O)c2ccccc2)n1	10.7
Cc1ccc(C)c(NC(=O)C2CCCN2C(=O)NC2CCCCC2)c1 (stereo not given)	18.3
COc1ccc(NC(=O)COC(=O)C23CC4CC(CC(Cl)(C4)C2)C3)c(OC)c1	18.7
CCCn1c2ccccc2c2nnc(SCc3[nH]c(=O)[nH]c3C(=O)CCCCC(=O)OCC)nc21	15.7
Cc1ccc(/C=N/N2C(=O)c3ccccc3NC2c2ccc(C)cc2)cc1 (stereo not given)	12.5
CC1CCN(c2ncnc3ccccc23)CC1	19.5
COc1ccc(CN(C)CC(=O)Nc2cc(OC)c([N+](=O)[O-])cc2C)c(OC)c1	4.5
O=c1[nH]nc(CNc2ccc(C(F)(F)F)cc2)c2ccccc12	6.7
N#C/C(=C\c1c(N2CCCCC2)nc2ccccn2c1=O)C(=O)NCc1ccco1	6.3
